Vaccinia stage: blocks a specific stage of Vaccinia orthopoxvirus infection; Vaccinia-infected cells, mCherry/Venus stage reporter fluorescence; active compounds read low; some inactives read as strong as hits; activity change (mCherry), % (concentration not given with the values); 89,000 tested, 0.01% active; AID 1053133;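 active means mCherry past -33% and 40 or more points under the early reporter, replicates agreeing; inconclusive means past -33% without that gap or agreement; tested in A549 cells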;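 further: scaled between vehicle wells and reference inhibitor wells; 23 nL library stock went into each well; one replicate is shown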
Vaccinia stage Venus: also measured in Vaccinia stage; calls as there; activity change (Venus), %; measured here: Venus reporter, other viral stage;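 negative = less Venus signal; first of two replicates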
* marks the source's active call; other numbers are inactive results; u = inconclusive; x = not tested or not shown. Only part of the results is shown (hit frequency here may not be typical).

item	Structure	Vaccinia stage	Vaccinia stage Venus
1	C[C@@H]1CCCCO[C@@H](CN(C)Cc2ccccc2)[C@@H](C)CN([C@H](C)CO)C(=O)c2cc(NC(=O)NC3CCCCC3)ccc2O1	-18	-7
2	C[C@@H]1CN([C@@H](C)CO)C(=O)c2cc(NC(=O)Cc3ccccc3)ccc2O[C@@H]1CN(C)S(=O)(=O)c1cn(C)cn1	-2	1
3	CO[C@H](CN(C)C(=O)c1ccc2c(c1)OCO2)[C@H](C)CN([C@H](C)CO)S(=O)(=O)c1ccc(C)cc1	-5	-6
4	O=C(NCC[C@H]1CC[C@H](NS(=O)(=O)c2ccc(F)cc2)[C@@H](CO)O1)c1ccccc1F	6	11
5	COc1ccc2c3c(n(C)c2c1)[C@H](CO)N(C(C)=O)CC31CCN(C(=O)NC(C)C)CC1	-1	7
6	C/C=C/c1ccc([C@H]2[C@@H](CNC(=O)CC)N(C(=O)CC)[C@H]2CO)cc1	1	-1
7	CCC(=O)N(C)C[C@H]1Oc2cc(C#CC(C)C)ccc2S(=O)(=O)N([C@H](C)CO)C[C@H]1C	5	-3
8	C[C@@H]1CN([C@@H](C)CO)C(=O)c2cccc(NS(=O)(=O)c3cccs3)c2O[C@H]1CN(C)S(=O)(=O)c1ccc(Cl)cc1	8	6
9	CO[C@H]1CN(C)C(=O)c2cc(NC(=O)C3CC3)ccc2OC[C@@H](C)N(C(=O)Cc2ccccn2)C[C@H]1C	9	8
10	OC[C@H]1Nc2ccc(C#Cc3ccc(F)cc3)cc2[C@@H]2[C@H]1CCN2Cc1ccc2c(c1)OCO2	-34	-21
11	C[C@@H]1CCCCO[C@@H](CN(C)C(=O)c2ccccc2)[C@H](C)CN([C@H](C)CO)C(=O)c2cc(NS(C)(=O)=O)ccc2O1	1	3
12	COc1ccc(CN2C[C@H](O)COC[C@H]3O[C@@H](CC(=O)N(C)C)CC[C@@H]32)cc1	4	7
13	C[C@@H]1CN([C@@H](C)CO)C(=O)c2cc(NC(=O)CCCCCC(=O)Nc3ccccc3N)ccc2O[C@H]1CN(C)Cc1ccncc1	17	4
14	CO[C@H](CN(C)C(=O)Nc1ccc(C(F)(F)F)cc1)[C@@H](C)CN(Cc1ccccc1Cl)[C@H](C)CO	4	8
15	Cc1noc(C)c1S(=O)(=O)Nc1ccc2c(c1)CC(=O)N([C@@H](C)CO)C[C@H](C)[C@H](CN(C)C)O2	1	4
16	COc1ccc(C#Cc2ccc3c(c2)O[C@@H](CN(C)C(=O)NC2CCCCC2)[C@@H](C)CN([C@@H](C)CO)S3(=O)=O)cc1	u	x

Structures above containing an aryl methoxy group:
item	Structure	Vaccinia stage	Vaccinia stage Venus
5	COc1ccc2c3c(n(C)c2c1)[C@H](CO)N(C(C)=O)CC31CCN(C(=O)NC(C)C)CC1	-1	7
12	COc1ccc(CN2C[C@H](O)COC[C@H]3O[C@@H](CC(=O)N(C)C)CC[C@@H]32)cc1	4	7
16	COc1ccc(C#Cc2ccc3c(c2)O[C@@H](CN(C)C(=O)NC2CCCCC2)[C@@H](C)CN([C@@H](C)CO)S3(=O)=O)cc1	u	x

Next section
item	Structure	Vaccinia stage	Vaccinia stage Venus
17	COc1ccc(NC(=O)Nc2cccc3c2O[C@H](CN(C)C(=O)NC(C)C)[C@H](C)CN([C@@H](C)CO)C3=O)cc1	10	5
18	C[C@@H]1CN([C@H](C)CO)C(=O)c2cccc(NC(=O)c3ccncc3)c2O[C@H]1CN(C)S(=O)(=O)c1ccc(Cl)cc1	-2	0
19	COc1ccc2c3c([nH]c2c1)[C@H](CO)N(Cc1ccccc1F)CC31CN(C(=O)C2CCC2)C1	4	10
20	CCC(=O)N1[C@@H]2CN(S(=O)(=O)c3ccccc3)c3ccccc3[C@@H]2[C@@H]1CO	4	8
21	COCCNC(=O)C[C@@H]1C[C@@H]2c3cc(NC(=O)c4cccnc4)ccc3O[C@@H]2[C@H](CO)O1	11	13
22	C[C@H]1CN([C@@H](C)CO)S(=O)(=O)c2ccc(C#CCN(C)C)cc2O[C@@H]1CN(C)S(=O)(=O)c1cccc(F)c1	-22	-14
23	C[C@H]1CN([C@@H](C)CO)C(=O)c2cc(NC(=O)Cn3cnnn3)ccc2O[C@H]1CN(C)C	27	12
24	C/C=C/c1ccc2c(c1)O[C@@H](CN(C)C(=O)CN1CCOCC1)[C@H](C)CN([C@@H](C)CO)S2(=O)=O	35	29

Full records from above. Order of screens: Vaccinia stage, Vaccinia stage Venus
COCCNC(=O)C[C@@H]1C[C@@H]2c3cc(NC(=O)c4cccnc4)ccc3O[C@@H]2[C@H](CO)O1 as listed: 11, 13
C[C@@H]1CN([C@H](C)CO)C(=O)c2cccc(NC(=O)c3ccncc3)c2O[C@H]1CN(C)S(=O)(=O)c1ccc(Cl)cc1 as listed: -2, 0

More results follow:
item	Structure	Vaccinia stage	Vaccinia stage Venus
25	Cc1ccc(S(=O)(=O)Nc2ccc3c(c2)CC(=O)N([C@@H](C)CO)C[C@H](C)[C@@H](CN(C)C(=O)Nc2ccc(C(F)(F)F)cc2)O3)cc1	16	9
26	O=C(CCN1CCCCC1)N[C@H]1CC[C@H](CCn2cc(-c3ccc(F)cc3)nn2)O[C@@H]1CO	6	10
27	C[C@H](CO)N1C[C@H](C)[C@@H](CN(C)Cc2ccc(C(=O)O)cc2)Oc2ccc(N(C)C)cc2CC1=O	0	1
28	COc1ccc(-c2ccc([C@H]3[C@H](CO)N4C(=O)CNC[C@@H]34)cc2)cc1	26	10
29	CCCN(C)C[C@@H]1Oc2cc(C#CC(C)C)ccc2S(=O)(=O)N([C@@H](C)CO)C[C@H]1C	u	x
30	Cc1noc(C)c1S(=O)(=O)Nc1ccc2c(c1)C(=O)N([C@@H](C)CO)C[C@@H](C)[C@@H](CN(C)C(=O)Nc1ccccc1)O2	10	7
31	C[C@@H]1CN([C@H](C)CO)C(=O)c2cccc(NC(=O)c3ccc(-c4nccs4)cc3)c2O[C@@H]1CN(C)Cc1ccccc1	1	-3
32	C[C@@H]1CN([C@H](C)CO)C(=O)Cc2cc(NC(=O)Cn3cnnn3)ccc2O[C@H]1CN(C)S(=O)(=O)c1cn(C)cn1	16	15
33	CC(C)CC#Cc1ccc2c(c1)O[C@@H](CN(C)C(=O)Nc1ccccc1F)[C@H](C)CN([C@H](C)CO)S2(=O)=O	u	x
34	COc1cccc(S(=O)(=O)Nc2ccc3c(c2)[C@@H]2C[C@@H](CC(=O)NCCc4ccccc4)O[C@H](CO)[C@@H]2O3)c1	-13	-4
35	O=C(c1cccnc1)N1C[C@@H]2[C@H](c3ccccc31)[C@H](CO)N2C(=O)Nc1ccc(F)cc1	4	12
36	O=C(c1ccncc1)N1C[C@@H]2N[C@H](C1)C2c1ccc(-c2ccncc2)cc1 (stereo partly drawn)	3	-6
37	Cc1noc(C)c1S(=O)(=O)N(C)C[C@@H]1OCCCC[C@H](C)Oc2ccc(NS(=O)(=O)c3cccs3)cc2C(=O)N([C@@H](C)CO)C[C@H]1C	-24	-19
38	C[C@@H]1CCCCO[C@@H](CN(C)C(=O)C2CCCCC2)[C@H](C)CN([C@@H](C)CO)C(=O)c2cc(NS(=O)(=O)c3ccccc3)ccc2O1	u	x
39	C[C@H]1CN([C@@H](C)CO)C(=O)c2cccc(NC(=O)Nc3ccc(C(F)(F)F)cc3)c2O[C@H]1CN(C)C(=O)Nc1cccc2ccccc12	u	x
40	COc1ccc(NC(=O)N[C@@H]2CC[C@@H](CCNC(=O)c3ccccc3F)O[C@H]2CO)cc1	11	13
41	C=C1CC(c2ccc(-c3ccccc3)cc2)OC1=O (stereo not drawn)	u	x
42	C/C=C/c1cnc2c(c1)C(=O)N([C@@H](C)CO)C[C@H](C)[C@H](CN(C)Cc1cncnc1)O2	4	0
43	C[C@@H]1CN([C@@H](C)CO)C(=O)Cc2cc(NS(C)(=O)=O)ccc2O[C@H]1CN(C)S(=O)(=O)c1cccs1	5	-1
44	C[C@H](CO)N1C[C@H](C)[C@H](CN(C)C(=O)CCCN(C)C)OCc2cnnn2CCCC1=O	7	5
45	C[C@H]1CN([C@@H](C)CO)C(=O)c2cc(C3=CCCC3)cnc2O[C@H]1CN(C)C(=O)NC1CCCC1	-6	-5
46	CCCC(=O)Nc1ccc2c(c1)C(=O)N(C)[C@@H]1CC[C@H](CC(=O)O)O[C@@H]1CO2	-1	-8
47	COc1ccc(NC(=O)N[C@@H]2CC[C@@H](CC(=O)NC3CCC3)O[C@@H]2CO)cc1	2	3
48	C[C@H](CO)N1C[C@H](C)[C@@H](CN(C)Cc2ccc3c(c2)OCO3)Oc2c(cccc2N(C)C)C1=O	20	9
49	C[C@@H]1CN([C@@H](C)CO)C(=O)c2cc(-c3cccc(F)c3)cnc2O[C@@H]1CN(C)C(=O)C1CCOCC1	8	15
50	C[C@H]1CN([C@@H](C)CO)S(=O)(=O)c2ccc(-c3ccccc3F)cc2O[C@@H]1CN(C)Cc1cncnc1	-22	-25
51	C/C=C/c1ccc([C@@H]2[C@@H](CO)N[C@@H]2CN(CC)C(=O)c2ccccn2)cc1	-11	-5
52	C[C@H](O)C#Cc1ccc2c(c1)O[C@@H](CN(C)C(=O)Cc1ccccn1)[C@H](C)CN([C@@H](C)CO)S2(=O)=O	12	8
53	CCC(=O)N[C@@H]1CC[C@@H](CCn2cc(C3CC3)nn2)O[C@@H]1CO	5	6
54	O=C(C[C@H]1CC[C@H]2[C@@H](COC[C@H](O)CN2Cc2cccc(F)c2)O1)NCC1CCCCC1	-18	-10
55	N#C[C@@H]1[C@H](c2ccccc2-c2cccc(F)c2)[C@H](CO)N1C(=O)Nc1cc(F)ccc1F	-33	-14
56	CO[C@H]1CN(C)C(=O)c2ccc(NC(C)=O)cc2OC[C@@H](C)N(Cc2nccs2)C[C@@H]1C	11	10
57	C[C@H]1CN([C@@H](C)CO)C(=O)Cc2cc(NC(=O)Nc3ccc4c(c3)OCO4)ccc2O[C@H]1CN(C)S(=O)(=O)c1ccccc1	-11	-4
58	C[C@H]1CCCCO[C@@H](CN(C)Cc2ccncc2)[C@@H](C)CN([C@@H](C)CO)C(=O)c2cc(NS(=O)(=O)c3cccs3)ccc2O1	-6	-9
59	CCCC#Cc1ccc([C@@H]2[C@@H](CO)N3CCCCN(S(C)(=O)=O)C[C@@H]23)cc1	-10	-8
60	C[C@H]1CN([C@@H](C)CO)C(=O)c2cccc(NC(=O)c3ccc(-c4nccs4)cc3)c2O[C@H]1CN(C)Cc1ccc(-c2ccccc2)cc1	u	x
61	C[C@H]1CCCCO[C@@H](CN(C)S(=O)(=O)c2cn(C)cn2)[C@@H](C)CN([C@@H](C)CO)C(=O)c2cc(NC(=O)C3CCCCC3)ccc2O1	8	5
62	COC(=O)C[C@@H]1C[C@@H]2c3cc(NC(=O)Nc4ccccc4)ccc3O[C@@H]2[C@@H](CO)O1	5	10
63	C[C@@H]1CN([C@H](C)CO)C(=O)c2cc(C3=CCCC3)cnc2O[C@H]1CN(C)Cc1ccccc1C(=O)O	25	12
64	O=C(Nc1cccc(F)c1)N1[C@@H]2CNC[C@H]1C2c1ccc(-c2ccncc2)cc1 (stereo partly drawn)	-7	6
65	COCCNC(=O)C[C@H]1CC[C@H](NC(=O)NC2CCCC2)[C@H](CO)O1	-3	11
66	Cc1noc(C)c1NC(=O)Nc1ccc2c(c1)C(=O)N([C@H](C)CO)C[C@H](C)[C@H](CN(C)C(=O)Nc1ccc3c(c1)OCO3)OCCCC[C@H](C)O2	6	0
67	CC(C)NC(=O)Nc1ccc2c(c1)C(=O)N([C@H](C)CO)C[C@@H](C)[C@@H](CN(C)Cc1ccncc1)O2	13	2
68	COc1ccc(S(=O)(=O)Nc2cccc3c2O[C@@H](CN(C)S(=O)(=O)c2c(C)noc2C)[C@H](C)CN([C@@H](C)CO)C3=O)cc1	6	6
69	COc1ccc(NC(=O)N(C)C[C@@H]2Oc3ccc(NC(=O)Nc4cccc5ccccc45)cc3C(=O)N([C@@H](C)CO)C[C@H]2C)cc1	12	7
70	COCC(=O)N1CC[C@H]2[C@@H]1c1cc(-c3ccc(F)cc3)ccc1N(C)[C@H]2CO	0	-2
71	C/C=C/c1ccc([C@H]2[C@H]3CN(CCC(F)(F)F)CCCCN3[C@H]2CO)cc1	-27	-21
72	C[C@H](CO)N1C[C@H](C)[C@@H](CN(C)C(=O)Nc2cccc3ccccc23)Oc2ccc(NS(=O)(=O)c3ccc(F)cc3)cc2CC1=O	22	10
73	COCC#Cc1cnc2c(c1)C(=O)N([C@H](C)CO)C[C@@H](C)[C@@H](CN(C)C(=O)Nc1ccccc1F)O2	15	1
74	C[C@H](O)C#Cc1ccc2c(c1)O[C@@H](CN(C)C(=O)Nc1ccccc1)[C@@H](C)CN([C@H](C)CO)S2(=O)=O	12	13
75	COCC(=O)Nc1ccc2c(c1)OC[C@H](C)N(C)C[C@H](C)[C@@H](OC)CN(C)C2=O	17	9
76	C[C@@H]1CCCCO[C@H](CN(C)C(=O)Nc2ccccc2)[C@@H](C)CN([C@H](C)CO)C(=O)c2cc(N(C)C)ccc2O1	17	12
77	C[C@H]1CN([C@@H](C)CO)C(=O)c2cccc(NC(=O)Nc3ccc(C(F)(F)F)cc3)c2O[C@H]1CN(C)Cc1ccncc1	-1	1
78	COc1ccc(CN(C)C[C@H]2OCCCC[C@H](C)Oc3ccc(NC(=O)Nc4c(C)noc4C)cc3C(=O)N([C@H](C)CO)C[C@@H]2C)cc1	32	19
79	O=C(N[C@@H]1CC[C@H](CCNS(=O)(=O)c2cccc(Cl)c2)O[C@@H]1CO)c1ccncc1	-8	-10
80	CCS(=O)(=O)N1CC2(CN(C(=O)CN3CCOCC3)[C@H](CO)c3c2c2ccc(OC)cc2n3C)C1	13	7

Two successive compounds out of the list so far:
item	Structure	Vaccinia stage	Vaccinia stage Venus
73	COCC#Cc1cnc2c(c1)C(=O)N([C@H](C)CO)C[C@@H](C)[C@@H](CN(C)C(=O)Nc1ccccc1F)O2	15	1
74	C[C@H](O)C#Cc1ccc2c(c1)O[C@@H](CN(C)C(=O)Nc1ccccc1)[C@@H](C)CN([C@H](C)CO)S2(=O)=O	12	13

High-throughput results as filed in PubChem.
